Screening data: PubChem BioAssay, Broad Institute
UUG fidelity = modulators of start codon recognition fidelity in yeast | AID 602363 | S. cerevisiae UUG-firefly luciferase reporter, luminescence/redox ratio | 350,000 compounds, 0.13% hits | activity score, % at 18.7 µM;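 active = replicate mean at a twofold rise or more, about +100% in these data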;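 also: firefly luciferase made from a UUG start codon reports start codon fidelity; reporter light over untreated wells divided by growth signal over untreated wells; some hits fall short of that in this replicate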
* hit, by the source's call. Some of the compounds tested (hit frequency here may not be typical).

SMILES | UUG fidelity
Cc1cccc(-c2ccc([C@@H]3[C@H]4CN(C(=O)c5cccnc5)CCCCN4[C@H]3CO)cc2)c1 | -9.9
COc1ccc(NC(=O)Nc2ccc3c(c2)C(=O)N([C@@H](C)CO)C[C@@H](C)[C@H](CN(C)Cc2ccc(-c4ccccc4)cc2)O3)cc1 | -4.6
COc1cccc(-c2ccc([C@@H]3[C@@H](CO)N4CCCCN(S(=O)(=O)c5cccs5)C[C@H]34)cc2)c1 | 1.8
C[C@@H]1CN([C@@H](C)CO)C(=O)Cc2cc(NC(=O)Cc3cn(C)c4ccccc34)ccc2O[C@H]1CN(C)C(=O)NC1CCCCC1 | 10.1
C[C@H](CO)N1C[C@H](C)[C@H](CN(C)CC2CCCCC2)Oc2ccc(NC(=O)Cc3cn(C)c4ccccc34)cc2C1=O | 10.3
C[C@H]1CN([C@@H](C)CO)C(=O)c2cccc(NC(=O)C3CCOCC3)c2O[C@@H]1CN(C)S(=O)(=O)c1cccs1 | 2.0
CC(C)NC(=O)N1CCCCN2[C@@H](CO)[C@@H](c3ccc(C#C[C@@H](C)O)cc3)[C@@H]2C1 | 0.6
C[C@@H]1CN([C@H](C)CO)C(=O)c2cccc(NS(C)(=O)=O)c2O[C@@H]1CN(C)C(=O)Nc1ccccc1 | -15.6
Cc1noc(C)c1NC(=O)N(C)C[C@H]1Oc2c(NC(=O)C3CCCCC3)cccc2C(=O)N([C@@H](C)CO)C[C@@H]1C | -25.6
C[C@H](CO)N1C[C@H](C)[C@H](CN(C)C(=O)Nc2ccccc2)Oc2ccc(NC(=O)c3ccncc3)cc2CC1=O | 0.9
C[C@H]1CN([C@@H](C)CO)C(=O)Cc2cc(NC(=O)Nc3ccc(F)cc3)ccc2O[C@H]1CN(C)C | -0.4
C[C@H]1CN([C@@H](C)CO)C(=O)Cc2cc(NC(=O)Cc3ccccc3)ccc2O[C@H]1CN(C)S(=O)(=O)c1ccc(Cl)cc1 | -10.4
O=S(=O)(c1ccc(F)cc1)N1CCCCN2[C@@H](CO)[C@@H](c3ccc(-c4ccccc4)cc3)[C@@H]2C1 | 6.7
CN(C)CC#Cc1ccc([C@@H]2[C@H]3CN(C(=O)C4CC4)CCCCN3[C@H]2CO)cc1 | 0.8
OC[C@H]1[C@H](c2ccc(C#Cc3ccccc3F)cc2)[C@H]2CN(CC3CCOCC3)CCCCN21 | 3.7
C[C@H]1CN([C@@H](C)CO)C(=O)c2cc(NC(=O)Nc3cccc4ccccc34)ccc2O[C@H]1CN(C)C(=O)Nc1ccccc1 | -6.9
CCCC#Cc1ccc([C@H]2[C@H]3CN(S(=O)(=O)c4ccccc4F)CCCCN3[C@H]2CO)cc1 | 11.8
CCS(=O)(=O)N1CCCCN2[C@H](CO)[C@@H](c3ccc(-c4ccc(C(=O)N(C)C)cc4)cc3)[C@@H]2C1 | -2.8
O=C(C[C@@H]1CC[C@@H]2[C@H](COC[C@H](O)CN2S(=O)(=O)c2cccc(Cl)c2)O1)N1CCOCC1 | 80.8
C[C@H]1CN([C@@H](C)CO)C(=O)c2cc(NC(=O)CCN3CCOCC3)ccc2O[C@@H]1CN(C)Cc1ccc(Oc2ccccc2)cc1 | 5.3
O=S(=O)(Cc1ccccc1)N1CCCCN2[C@@H](CO)[C@@H](c3ccc(-c4ccc(F)cc4)cc3)[C@@H]2C1 | 15.9
CCCNC(=O)Nc1ccc2c(c1)OC[C@@H](C)N(C(=O)CC)C[C@H](C)[C@H](OC)CN(C)C2=O | 12.0
O=C(NC[C@H]1N[C@@H](CO)[C@H]1c1ccc(-c2ccc(F)cc2)cc1)c1ccccn1 | -10.8
C[C@@H]1CN([C@@H](C)CO)C(=O)c2cc(NC(=O)c3ccncc3)ccc2O[C@H]1CN(C)S(=O)(=O)c1ccccc1 | 20.5
Cc1cccc(S(=O)(=O)N2CCCCN3[C@H](CO)[C@H](c4ccc(-c5ccncc5)cc4)[C@H]3C2)c1 | 28.4
CCCNC(=O)N1C[C@@H]2[C@H](c3ccccc31)[C@H](CO)N2C(=O)c1ccncc1 | -4.4
CN(C)C(=O)c1cccc(-c2ccc([C@@H]3[C@@H](CO)N4CCCCN(C(=O)C5CCCC5)C[C@H]34)cc2)c1 | -0.8
C[C@H](CO)N1C[C@H](C)[C@H](CN(C)C(=O)Nc2ccccc2)Oc2ccc(NC(=O)CCCN(C)C)cc2C1=O | 8.0
O=C(Nc1ccc(F)cc1)N1C[C@@H]2[C@H](c3ccccc31)[C@@H](CO)N2C(=O)c1ccccc1F | 41.3
CC(C)N(C[C@@H]1N[C@@H](CO)[C@H]1c1ccccc1)C(=O)CN1CCOCC1 | 0.1
CC(C)NC(=O)N(C)C[C@H]1Oc2c(NC(=O)c3ccncc3)cccc2C(=O)N([C@@H](C)CO)C[C@H]1C | -18.0
CCS(=O)(=O)Nc1ccc2c(c1)C(=O)N(C)C[C@H](OC)[C@@H](C)CN(Cc1nccs1)[C@H](C)CO2 | -11.9
CN1c2ccc(-c3cccc(F)c3)cc2[C@H]2[C@H](CCN2C(=O)c2ccc3c(c2)OCO3)[C@H]1CO | -16.5
O=C(C1CC1)N1CC[C@@H]2[C@H](CO)Nc3ccc(C#Cc4ccc(F)cc4)cc3[C@@H]21 | -5.7
COc1ccc(NC(=O)Nc2cccc3c2O[C@@H](CN(C)C(=O)Nc2ccc(F)cc2)[C@H](C)CN([C@H](C)CO)C3=O)cc1 | 4.7
COc1ccc(C#Cc2ccc3c(c2)[C@H]2[C@H](CCN2C(=O)CC2CC2)[C@@H](CO)N3)cc1 | 7.6
Cc1noc(C)c1NC(=O)Nc1cccc2c1O[C@@H](CN(C)C(=O)NC1CCCCC1)[C@H](C)CN([C@@H](C)CO)C2=O | -4.5
O=C(C1CC1)N1[C@H](CO)[C@H]2c3ccccc3N(S(=O)(=O)c3ccc(F)cc3)C[C@H]21 | -9.6
N#Cc1cccc(-c2ccc3c(c2)[C@H]2[C@H](CCN2C(=O)c2ccccc2F)[C@H](CO)N3)c1 | -17.3
C[C@@H]1CN([C@@H](C)CO)C(=O)c2cccc(NC(=O)c3nc4ccccc4s3)c2O[C@@H]1CN(C)S(=O)(=O)c1cn(C)cn1 | -8.1
CCCNC(=O)C[C@@H]1CC[C@@H]2[C@H](COC[C@H](O)CN2C(=O)Nc2ccccc2OC)O1 | -5.3
Cc1noc(C)c1NC(=O)Nc1ccc2c(c1)C(=O)N([C@H](C)CO)C[C@H](C)[C@H](CN(C)S(=O)(=O)c1cccs1)O2 | 20.1
COc1ccccc1S(=O)(=O)N1CC[C@@H]2[C@@H](CO)N(C)c3ccc(-c4ccccc4)cc3[C@@H]21 | 10.2
COCC#Cc1ccc([C@H]2[C@H](CO)N3CCCCN(S(=O)(=O)c4cccc(OC)c4)C[C@@H]23)cc1 | -11.5
COc1ccc(S(=O)(=O)N2CCCCN3[C@H](CO)[C@H](c4ccc(C5=CCCC5)cc4)[C@@H]3C2)cc1 | 16.9
CCCC(=O)Nc1ccc2c(c1)C(=O)N(C)C[C@@H](OC)[C@H](C)CN(Cc1ccccn1)[C@@H](C)CO2 | -18.5
C[C@@H]1CN([C@H](C)CO)C(=O)c2cc(NC(=O)Cc3cn(C)c4ccccc34)ccc2O[C@@H]1CN(C)C(=O)Nc1ccc2c(c1)OCO2 | -8.6
CN1C(=O)c2cc(NC(=O)C3CC3)ccc2OC[C@@H]2O[C@H](CC(=O)NCCN3CCCC3)CC[C@H]21 | 7.4
C[C@@H]1CN([C@H](C)CO)C(=O)c2cccc(NC(=O)c3nc4ccccc4s3)c2O[C@H]1CN(C)C(=O)Nc1ccc2c(c1)OCO2 | 12.5
CCCNC(=O)Nc1ccc2c(c1)OC[C@H](C)N(C(=O)CC)C[C@@H](C)[C@H](OC)CN(C)C2=O | 8.3
COc1ccc(NC(=O)N2CCCCN3[C@H](CO)[C@H](c4ccc(C#Cc5ccccc5)cc4)[C@@H]3C2)cc1 | 11.0
CO[C@@H]1CN(C)C(=O)c2ccc(NS(C)(=O)=O)cc2OC[C@@H](C)N(C(=O)C2CC2)C[C@H]1C | -2.7
CO[C@@H]1CN(C)C(=O)c2cc(NC(=O)C3CC3)ccc2OC[C@H](C)N(Cc2ccncc2)C[C@H]1C | 3.9
COCC(=O)NC[C@H]1[C@H](c2ccc(-c3ccccc3)cc2)[C@H](CO)N1C(C)=O | 20.9
CO[C@@H]1CN(C)C(=O)c2cc(NC(=O)C3CC3)ccc2OC[C@H](C)N(C(C)=O)C[C@@H]1C | 12.5
CCC(=O)N1C[C@H](C)[C@@H](OC)CN(C)C(=O)c2cc(NC(=O)Nc3ccc(Cl)cc3)ccc2OC[C@H]1C | 3.6
C[C@H](O)C#Cc1ccc([C@H]2[C@H]3CN(C(=O)c4ccncc4)CCCCN3[C@H]2CO)cc1 | -5.5
O=C(C1CCCC1)N1C[C@@H]2[C@H](c3ccccc31)[C@H](CO)N2C(=O)c1ccccc1F | 42.6
CS(=O)(=O)Nc1ccc2c(c1)[C@H]1C[C@@H](CC(=O)N3CCCCC3)O[C@H](CO)[C@H]1O2 | -4.7
COCC#Cc1ccc([C@@H]2[C@H]3CN(S(=O)(=O)c4cccc(OC)c4)CCCCN3[C@H]2CO)cc1 | -7.2

At a glance, five of the compounds above:
SMILES | UUG fidelity
C[C@@H]1CN([C@H](C)CO)C(=O)c2cccc(NC(=O)c3nc4ccccc4s3)c2O[C@H]1CN(C)C(=O)Nc1ccc2c(c1)OCO2 | 12.5
CCCNC(=O)Nc1ccc2c(c1)OC[C@H](C)N(C(=O)CC)C[C@@H](C)[C@H](OC)CN(C)C2=O | 8.3
COc1ccc(NC(=O)N2CCCCN3[C@H](CO)[C@H](c4ccc(C#Cc5ccccc5)cc4)[C@@H]3C2)cc1 | 11.0
CO[C@@H]1CN(C)C(=O)c2ccc(NS(C)(=O)=O)cc2OC[C@@H](C)N(C(=O)C2CC2)C[C@H]1C | -2.7
CO[C@@H]1CN(C)C(=O)c2cc(NC(=O)C3CC3)ccc2OC[C@H](C)N(Cc2ccncc2)C[C@H]1C | 3.9

Part of the list above in order of heavy-atom count, rising.
SMILES | UUG fidelity
COCC(=O)NC[C@H]1[C@H](c2ccc(-c3ccccc3)cc2)[C@H](CO)N1C(C)=O | 20.9
CS(=O)(=O)Nc1ccc2c(c1)[C@H]1C[C@@H](CC(=O)N3CCCCC3)O[C@H](CO)[C@H]1O2 | -4.7
O=C(C1CCCC1)N1C[C@@H]2[C@H](c3ccccc31)[C@H](CO)N2C(=O)c1ccccc1F | 42.6
C[C@@H]1CN([C@H](C)CO)C(=O)c2cccc(NC(=O)c3nc4ccccc4s3)c2O[C@H]1CN(C)C(=O)Nc1ccc2c(c1)OCO2 | 12.5

More results
SMILES | UUG fidelity
CO[C@H]1CN(C)C(=O)c2ccc(NC(=O)c3cccc(F)c3)cc2OC[C@@H](C)N(C)C[C@@H]1C | 5.1
COc1ccc(S(=O)(=O)Nc2cccc3c2O[C@@H](CN(C)C(=O)Nc2ccc(F)cc2)[C@H](C)CN([C@@H](C)CO)C3=O)cc1 | 0.2
O=C(C[C@H]1CC[C@H]2[C@@H](COC[C@@H](O)CN2Cc2cccc(-c3ccncc3)c2)O1)N1CCN(c2ccccc2)CC1 | -0.6
C[C@@H]1CN([C@@H](C)CO)C(=O)c2cccc(NS(=O)(=O)c3cccs3)c2O[C@@H]1CN(C)Cc1ccc(Oc2ccccc2)cc1 | 8.7
CCC(=O)Nc1ccc2c(c1)OC[C@H](C)N(Cc1cncnc1)C[C@@H](C)[C@H](OC)CN(C)C2=O | -13.0
O=S(=O)(c1cccs1)N1CCCCN2[C@H](C1)[C@H](c1ccc(C3=CCCCC3)cc1)[C@@H]2CO | 21.5
COCC(=O)N1C[C@H](C)[C@H](OC)CN(C)C(=O)c2ccc(NC(=O)c3ccccc3)cc2OC[C@@H]1C | 7.6
C[C@H](CO)N1C[C@H](C)[C@@H](CN(C)C(=O)Nc2cccc3ccccc23)Oc2c(NC(=O)Nc3ccccc3)cccc2C1=O | 7.6
COCC(=O)Nc1ccc2c(c1)OC[C@@H](C)N(C)C[C@@H](C)[C@@H](OC)CN(C)C2=O | 24.8
CO[C@H]1CN(C)C(=O)c2cc(NC(=O)NC3CCCCC3)ccc2OC[C@H](C)N(CC2CC2)C[C@H]1C | -2.6
O=C(Cc1ccccc1)N1C[C@H]2[C@@H](c3ccccc31)[C@@H](CO)N2C(=O)C1CCCCC1 | 37.5
C[C@@H]1CN([C@@H](C)CO)C(=O)c2cc(NS(=O)(=O)c3cn(C)cn3)ccc2O[C@H]1CN(C)Cc1ccc(C(=O)O)cc1 | -6.0
CC=Cc1ccc2n(c1=O)C[C@H]1[C@H](CO)[C@@H](C(=O)N(C)C)[C@@H]2N1CC1CCCCC1 (mixture of isomers) | 18.6
Cc1ccc(S(=O)(=O)N(C)C[C@H]2Oc3ccc(NC(=O)c4ccncc4)cc3CC(=O)N([C@@H](C)CO)C[C@@H]2C)cc1 | -9.3
CCC(=O)N1[C@@H]2c3ccc(C4=CCCC4)c(=O)n3C[C@@H]2[C@@H](CO)[C@@H]1C(=O)NCc1ccc(F)cc1 | 8.8
COc1cccc(NC(=O)N2C[C@H](O)COC[C@H]3O[C@H](CC(=O)NC4CCCC4)CC[C@@H]32)c1 | -1.2
CO[C@@H]1CN(C)C(=O)c2cc(NC(=O)Nc3cccc(F)c3)ccc2OC[C@@H](C)NC[C@H]1C | -5.4
Cc1cccc(S(=O)(=O)N2C[C@@H]3[C@H](c4ccccc42)[C@@H](CO)N3C(=O)CC2CC2)c1 | -0.3
O=C(c1ccncc1)N1C[C@H]2[C@@H](c3ccccc31)[C@@H](CO)N2C(=O)c1ccncc1 | -3.7
CN1c2ccc(C#Cc3ccc(F)cc3)cc2[C@@H]2[C@@H](CCN2C(=O)CN2CCOCC2)[C@H]1CO | -7.5
C[C@@H]1CN([C@H](C)CO)C(=O)Cc2cc(NC(=O)NC3CCCCC3)ccc2O[C@@H]1CN(C)S(C)(=O)=O | -5.4
COc1ccccc1S(=O)(=O)N1CC[C@@H]2[C@H]1c1cc(-c3cccc(C#N)c3)ccc1N[C@@H]2CO | 1.3
Cc1ccc(S(=O)(=O)N2C[C@@H](O)COC[C@@H]3O[C@H](CC(=O)NCc4ccc(Cl)c(Cl)c4)CC[C@H]32)cc1 | 9.6
CC(C)NC(=O)Nc1ccc2c(c1)CC(=O)N([C@@H](C)CO)C[C@@H](C)[C@H](CN(C)Cc1ccc(C(F)(F)F)cc1)O2 | 22.8
